Screening data deposited in PubChem by several laboratories.
Beta cell apopt: blocks beta cell apoptosis. INS-1E cytokine-induced death, ATP luminescence, 48 h; percent of positive-control rescue, neutral wells zero. actives 0.8% (n = 300,000). AID 435005. protection from apoptosis, % (test concentration not listed);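 active means all replicates at 75% or more, or half of them and the mean; inconclusive means half reach 75% but not the mean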;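 further: 0% = cytokine-treated negative control wells and 100% = positive control rescue; higher means more ATP so stronger rescue from cytokine killing; wells of about 40 µL received 100 nL stock; the first replicate is given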
T cruzi inh: T. cruzi replication inhibition; inhibition, % (concentration not given with the values); actives 1.4% (n = 300,000); T. cruzi beta-gal in NIH3T3, luminescence, 90 h;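 active means mean inhibition across valid replicates above about 55%, limit read from the data; inconclusive means mean below that limit but half or more replicates reach it; inactive means mean below it, under half of replicates reach it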;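 further: signal also drops with host cell toxicity which is not excluded here; 0% = plate median of DMSO wells and 100% = zero luminescence signal; higher percent means less beta-gal luminescence so fewer parasites; stock transfer was 50 nL into about 50 µL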
RanGTP-Imp inh: disruptors of Ran-importin-beta complex formation – biochemical, FRET, CFP-Ran, YFP-importin-beta, homogeneous, primary screen; cell-free CFP-Ran/YFP-importin-beta FRET ratio; inhibition, % (test concentration not listed); actives 1.1% (n = 300,000); AID 2216;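 active means most replicates above 15%; inconclusive means exactly half above 15%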;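 further: 0% = DMSO wells and 100% = Ran loaded with GDP instead of GTP; wells of about 40 µL received 100 nL stock; the first replicate is given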
B2AR ag: activates human beta-2 adrenergic receptor causing internalization; Am2.2-beta2AR cells, FAP receptor internalization, flow cytometry; reference of the scale not given here; response, % (concentration not given with the values); actives 0.43% (n = 340,000); AID 504454;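 active means response above a set limit, near 3 SD of response in nonfluorescent compounds, cut at about 42% in these data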;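 further: stock transfer was 100 nL into about 11 µL; a reference agonist was the positive control; negative values mostly stem from fluorescent compounds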
Target sequence (P07550 whole entry, looked up): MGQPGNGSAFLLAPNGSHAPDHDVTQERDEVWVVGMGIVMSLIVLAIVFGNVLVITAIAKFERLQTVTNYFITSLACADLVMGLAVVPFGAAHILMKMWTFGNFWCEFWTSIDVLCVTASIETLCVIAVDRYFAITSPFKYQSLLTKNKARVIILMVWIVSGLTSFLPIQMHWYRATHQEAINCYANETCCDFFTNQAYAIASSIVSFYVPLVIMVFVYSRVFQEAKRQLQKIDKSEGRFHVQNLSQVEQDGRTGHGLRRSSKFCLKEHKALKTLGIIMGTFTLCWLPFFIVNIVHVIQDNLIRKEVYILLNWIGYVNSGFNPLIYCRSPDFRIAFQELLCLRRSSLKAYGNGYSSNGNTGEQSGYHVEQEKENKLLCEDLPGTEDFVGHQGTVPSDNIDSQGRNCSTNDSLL
LANA-H2A inh: blocks KSHV LANA binding to histone H2A/H2B; cell-free LANA-H2A/H2B peptide, fluorescence polarization; inhibition, % (concentration not given with the values); actives 0.6% (n = 320,000); AID 2629; in the data active means inhibition mostly above about 10%, no sharp cut-off; inactive means mostly below about 6.7%;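 further: stock transfer was 7.5 nL into about 10 µL; 0% = median of vehicle wells and 100% = median of positive control wells; one replicate is shown; the record names a cut of 25% in any replicate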
A1 inh: inhibitors of the anti-apoptotic protein A1, read as caspase activation | MEF A1-2A-BIM cells, Caspase-Glo 3/7 luminescence, 3 h; percent of clofoctol response, vehicle zero | caspase activation, % (test concentration not listed) | actives 0.066% (n = 330,000) | AID 2462;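 active means over half of replicate activation scores above 10%, or exactly half above 10 with the replicate mean above 10; inconclusive means replicate mean below 10 yet half the replicates above 10; inactive means over half of replicates below 10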;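 further: wells of about 30 µL received 50 nL stock; many hits fall short of the cut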
Calb FLC: affects C. albicans growth with fluconazole | actives 0.57% (n = 300,000) | growth inhibition, % (no concentration beside the values) | C. albicans CaCi-2 (fluconazole-resistant clinical isolate) + fluconazole, Alamar Blue growth, 48 h;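 active means most replicates above 75%; inconclusive means exactly half above 75%; inactive means most below 75%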;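 further: all wells also contain fluconazole at 8 µg/ml as a sub-toxic cotreatment; 0% = median of DMSO wells and 100% = median of geldanamycin control wells; wells of about 8 µL received 7.5 nL stock; the first replicate is given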
UCH37 inh: inhibitors of human deubiquitinating enzyme UCH37. purified proteasome/UCH37, Ub-AMC cleavage fluorescence. inhibition, % (test concentration not listed). actives 0.33% (n = 330,000);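 active means mean of two replicates above 20%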;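 further: 0% = compound-free wells with enzyme and 100% = wells lacking proteasome; stock transfer was 100 nL into about 20 µL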
Target sequence (Q9Y5K5 whole entry, looked up): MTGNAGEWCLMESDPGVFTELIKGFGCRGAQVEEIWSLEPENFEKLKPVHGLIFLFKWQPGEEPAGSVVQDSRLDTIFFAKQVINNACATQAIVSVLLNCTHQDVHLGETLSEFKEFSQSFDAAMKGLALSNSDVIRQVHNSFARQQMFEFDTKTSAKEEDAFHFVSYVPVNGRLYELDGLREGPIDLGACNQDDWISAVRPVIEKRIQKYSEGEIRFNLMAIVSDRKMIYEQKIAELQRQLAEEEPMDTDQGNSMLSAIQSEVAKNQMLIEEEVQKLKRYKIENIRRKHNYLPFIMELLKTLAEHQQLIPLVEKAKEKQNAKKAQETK
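Material: Human UCH37 enzyme supplied as purified proteasome complex | Schedule: 30 min compound-proteasome preincubation then 25 min substrate reaction, room temperature | Detection: AMC fluorescence from Ub-AMC cleavage, excitation 355 nm, emission 460 nm | Benchmarks: Wells without proteasome as full block, compound-free enzyme plus substrate as uninhibited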
Active calls of the source: *; ? = inconclusive; / = not tested or not shown; & = joins results of further samples.

SMILES	Beta cell apopt	T cruzi inh	RanGTP-Imp inh	B2AR ag	LANA-H2A inh	A1 inh	Calb FLC	UCH37 inh
O=[N+]([O-])c1ccc(S(=O)(=O)Nc2ccc(-c3csc(-c4ccccc4)n3)cc2)cc1	9.3	65.6*	2.0	/	1.7	-0.4	41.9	/
CCOC(=O)c1[nH]c2cc(OC)c(OC)cc2c1NC(=O)CN1CCN(c2ccc(OC)cc2)C(C)C1 (stereo unspecified)	5.7	36.3	-1.2	/	1.0	-1.3	21.2	/
CNC(=O)c1[nH]cnc1C(=O)NCC(=O)OC(C)(C)C	-3.0	-0.9	-3.5	4.3	5.3	1.9	-3.3	-0.5
COC(=O)c1cccc(NC(=O)Nc2ccccc2OC)c1	8.6	-1.1	3.9	8.7	2.6	-6.2	-23.4	-1.0
COC(=O)CSc1ccsc1C(=O)O	6.1	-22.4	5.6	-5.7	-12.8	0.9	6.2	-0.1
CC(=O)NCCCOc1ccc([N+](=O)[O-])cc1Cl	-0.9	0.6	6.1	-4.5	-3.0	-0.2	2.4	6.9
CCOC(=O)c1sc2nc(SCC#N)n(CC3CCCO3)c(=O)c2c1C (stereo unspecified)	-2.5	12.3	4.5	-8.3	1.5	0.7	6.6	-0.2
CCN(CC)c1ccc(/C=N/N2CCN(Cc3ccc(C)cc3)CC2)c(O)c1	1.5	36.6	0.6	15.9	-1.3	0.3	-13.0	/
COc1cc(-c2nc(-c3ccccc3)c(-c3cc([N+](=O)[O-])ccc3C)[nH]2)cc(OC)c1OC	3.1	57.9*	-1.4	23.1	2.4	0.2	46.9	3.4
O=C(NCCN1CCOCC1)c1cc(-c2cccs2)on1	30.4	0.3	/	-15.3	1.6	0.2	-10.3	-0.2
COc1ccc(/C=C/C(=O)OCC(=O)N2CCCCCC2)c(OC)c1	-1.2	/	/	3.3	0.3	0.9	/	0.6
Cc1cccc(C)c1NC(=S)N(CCN1CCCCCC1)Cc1ccco1	-6.5	18.3	-2.7	-4.3	-3.4	0.6	6.9	6.7
Cc1ccc(NC(=O)c2sccc2C)nc1	16.3	-18.5	1.6	-3.3	-0.3	-6.8	-6.8	4.4
O=S1(=O)CCOC[C@H](Cc2ccccc2)N1Cc1ccccc1	-11.6	0.5	-2.1	1.4	-0.3	0.4	11.5	2.9
O=C(Nc1cccc(-c2nnc(-c3ccco3)o2)c1)C(c1ccccc1)c1ccccc1	31.3	35.8	0.5	4.2	-2.7	0.7	1.9	1.6
CC(C)N1CCN(CC#Cc2ccccc2)CC1CCO (stereo unspecified)	0.5	2.9	1.2	0.5	2.2	-0.5	-1.7	2.6
CN(C)c1nc(=S)nc(NCc2ccccc2)[nH]1	-9.9	1.4	1.4	-1.1	2.2	0.4	8.5	1.5
Cn1nc(C(=O)NCCc2ccc(Cl)cc2)c2c1-c1ccccc1S(=O)(=O)C2	-0.3	13.9	-1.3	14.2	-3.4	0.0	-5.9	0.1
CC(=O)c1ccc(NC(=O)C(C)O/N=C(\N)c2ccccc2)cc1 (stereo unspecified)	-2.4	/	/	-1.7	-4.7	-0.7	/	0.2
Cc1c(NS(=O)(=O)c2cccc([N+](=O)[O-])c2)c(=O)n(-c2ccccc2)n1C	0.8	11.6	1.6	3.6	0.5	-0.9	7.3	1.9
COc1ccccc1CNC(=O)c1cc(-c2ccccc2)n(Cc2cc(C)no2)n1	-0.2	/	/	-14.1	1.9	1.7	/	0.1
N=c1c2c(ncn1CCCO)Oc1cc(O)ccc1C2c1ccccc1 (stereo unspecified)	1.1	-25.1	6.5	-16.5	0.9	1.2	-0.4	4.7
COC(=O)C(Cc1ccc(OC(=O)c2ccc(C(F)(F)F)cc2)cc1)N1Cc2ccccc2C1=O (stereo unspecified)	-6.3	-20.6	-0.6	16.1	8.0	-2.7	4.0	5.2
COc1ccc(CNc2ccc(C)cc2)cc1Br	-8.0	-7.1	1.1	-1.5	3.9	0.1	4.3	0.5
O=C(CCN1CCCC1)c1cccs1	-19.8	10.8	4.8	11.9	4.8	-0.3	-3.9	2.0
CCOC(=O)C1CCCN(CC(=O)Nc2c(C(=O)OC)[nH]c3ccc(C)cc23)C1 (stereo unspecified)	1.7	-2.1	?	5.4	2.7	1.6	17.6	-27.5
O=C(Cn1cnc2c(nnn2Cc2ccc(Cl)cc2)c1=O)N1CCN(c2ccccc2)CC1	7.6	/	/	-1.8	3.9	0.8	/	4.7
O=C(NCCC1=CCCCC1)C1CCCN(S(=O)(=O)c2cnc[nH]2)C1 (stereo unspecified)	-8.0	-3.1	-1.5	3.3	0.2	-0.4	-0.6	13.4
CCC(C)Oc1ccccc1C1CC(=O)NC2=C1C(=O)CCC2 (stereo unspecified)	-2.1	-11.1	-1.4	6.5	-0.9	0.1	-2.8	4.5
O=C(O)CC12CC3CC(C1)CC(n1ncc(NCc4ccc5c(c4)OCO5)c(Cl)c1=O)(C3)C2	/	-4.1	0.2	/	0.3	0.0	-4.2	2.8
CCc1nnc(NC(=O)c2cc(OC)c(OC)cc2[N+](=O)[O-])s1	-3.7	-6.8	-2.0	2.9	-2.9	-0.7	20.1	3.4
O=c1cc(-c2ccccc2)nc2nc[nH]n12	0.9	-7.7	-2.0	-4.3	-5.8	-0.5	9.5	0.3
Cc1cc(C)n2nc(SCC(=O)Nc3ccccc3)nc2n1	-4.0	-3.1	-2.2	-12.1	-0.3	1.3	-8.3	0.3
Cc1ccc(-c2nc(CNC(=O)c3cc(C)on3)cs2)cc1	-13.9	7.9	/	-3.1	0.8	-0.6	/	3.7
COC(=O)c1ccc(C(=O)N(C)C2CCCN(Cc3ccccc3F)C2)nc1 (stereo unspecified)	/	1.7	-0.7	0.4	-0.8	0.1	1.8	4.2
CC(O)c1nc2ccccc2n1CCCCOc1ccccc1 (stereo unspecified)	-0.2	-2.6	0.5	-1.0	2.6	0.4	19.6	4.9
CC1=CC(C)C2(CO)COC(c3cccnc3)C1C2C (stereo unspecified)	2.4	-20.3	2.1	-0.9	1.9	-0.3	22.5	4.1
CCN1CCCC1CNC(=O)Cn1cccc1C(=O)c1ccccc1 (stereo unspecified)	-1.5	-3.0	5.6	3.8	-2.8	0.5	-0.3	-0.6
CN(Cc1cc(=O)n2ccsc2n1)C1CCCCC1	-8.6	4.4	-1.3	-5.0	1.7	0.5	-11.8	-1.2
CCOc1ccc(CCNC(=O)/C=C/c2ccco2)cc1OCC	-19.3	-8.6	-1.9	1.8	1.3	0.3	-0.1	0.8
O=C(CCCCCN1C(=O)c2ccccc2C1=O)NCc1ccco1	-4.9	-1.7	1.8	-4.8	3.0	0.3	-9.4	1.1
Cc1cc(Cl)cc2c1NC(=O)[C@]21[C@@H]2C(=O)N(Cc3ccccc3)C(=O)[C@@H]2[C@@H]2CCCN21	-4.1	-8.5	2.0	1.2	-0.9	0.0	-8.0	1.0
COc1ccc(N(CC(=O)N2CC=C(c3ccccc3)CC2)S(=O)(=O)c2c(C)noc2C)cc1	2.2	/	/	19.1	3.4	-0.4	/	4.5
CCCCOc1ccc(N2C(=O)CC(N(CCc3ccccc3)C(=O)/C=C/C(=O)O)C2=O)cc1 (stereo unspecified)	0.3	3.5	-0.1	5.7	-7.5	0.5	-5.5	4.2
COc1ccc(NS(=O)(=O)c2c(C(=O)N3CCCCCC3)c(C)n(C)c2C)cc1OC	0.5	15.3	-0.8	17.9	4.3	-1.5	-1.4	3.5
COc1ccc(C(=O)c2c(C(F)(F)F)oc3c2C(=O)c2ccccc2C3=O)cc1	115.4*	?	?	12.8	3.1	-1.1	-19.4	15.2
COc1cc(/C=C2/C(=O)NN(c3cccc(F)c3)C2=O)ccc1OC(=O)c1ccco1	2.3	8.8	2.5	46.8*	-4.0	-0.6	-37.3	9.0
CC(=O)c1c(C)[nH]c(C(=O)OCc2nc3ccsc3c(=O)[nH]2)c1C	-14.3	0.3	?	2.3	-2.5	0.4	-0.1	5.0
CCOc1ccc(C2C(C(=O)c3cccs3)=C(O)C(=O)N2Cc2cccnc2)cc1OC (stereo unspecified)	0.0	3.6	-1.9	-3.3	2.6	0.2	14.3	10.7
Cc1cccc(Nc2nc(-c3ccncc3)cs2)c1	-11.4	60.9*	-19.9	18.8	-2.8	0.4	20.4	-5.7
COc1ccc(-n2nc([N+](=O)[O-])c(=NCc3ccc4c(c3)OCO4)n2O)cc1	3.3	48.6	?	-2.1	-6.9	-8.0	2.4	5.3
Cc1cccc(-c2c3c(=O)n(C)c(=O)n(C)c3c3cccnn23)c1	-14.0	-5.3	-2.9	2.2	1.0	0.3	0.7	4.3
S=C(NCC1CCCO1)N1CCN(c2cccc(Cl)c2)CC1 (stereo unspecified)	9.9	-9.7	-3.7	1.5	-0.2	0.5	13.7	1.6
CC(/C=N/NC(=O)Cc1cc(=O)[nH][nH]1)=C\c1ccccc1	-3.3	-20.6	0.5	5.5	-6.9	0.0	2.8	/
Cc1ccc(SCC2(O)CCN(C(=O)c3ccc(Cl)cc3)CC2)cc1	3.9	7.7	-4.7	1.1	1.6	-0.2	22.8	2.5
O=C(Nc1ccc([N+](=O)[O-])cc1)C1(c2ccccc2)CCOCC1	5.7	0.5	7.5	-13.9	-3.4	0.5	5.2	1.8
OC(CCCN1CCC(O)(c2ccc(Cl)cc2)CC1)c1ccc(F)cc1 (stereo unspecified)	3.8	15.8	2.8	-0.6	-1.1&19.7	0.3	/	1.6
CSCCC(=O)N1CCC(n2nccc2NC(=O)c2ccc3c(c2)OCO3)CC1	0.0	-11.4	-3.9	7.1	-0.3	0.1	1.4	2.1
CCS(=O)(=O)N1CCN(CC2CC3C=CC2C3)CC1 (stereo unspecified)	/	5.7	2.5	1.5	1.9	0.2	?	1.4
Cc1cc(C)nc(NC(=O)CSc2nn(-c3ccccc3)c(=S)s2)n1	-3.9	-3.3	-2.2	0.6	-0.1	-1.1	-5.8	1.7

Next part
SMILES	Beta cell apopt	T cruzi inh	RanGTP-Imp inh	B2AR ag	LANA-H2A inh	A1 inh	Calb FLC	UCH37 inh
COc1ccc(NC(=O)COc2coc(CN3CCCc4ccccc43)cc2=O)cc1	-7.0	-7.7	-0.8	1.9	-2.6	-1.2	2.5	1.8
O=C(COC(=O)c1ccc(Br)cc1)NCc1ccccc1	-3.9	-0.6	1.0	-1.9	5.0	0.9	-1.2	3.3
CCOc1ccc2c(c1)C(N(CCN1CCOCC1)C(=S)Nc1ccccc1OC)CC(C)(C)O2 (stereo unspecified)	-3.4	-4.6	2.5	4.7	-1.2	0.2	11.5	7.4
CSc1nsc(SCC(=O)Nc2ccc(C(N)=O)cc2)n1	1.2	19.0	?	-6.1	31.2*	1.3	-3.5	2.2
COc1cccc(NC(=S)N(CCN(C)C)C(C)c2cccnc2)c1 (stereo unspecified)	0.1	18.5	0.0	5.2	-2.6	0.5	-8.6	0.9
CC(=O)N1CCCN(C(=O)c2ccc3nc(Cc4ccccc4F)oc3c2)CC1	-2.4	-20.5	-1.6	-7.7	6.8	0.3	3.3	4.1
C[C@@]12C(=O)Nc3ccc(Cl)cc3C(=O)N1[C@H]1c3cc(Cl)ccc3OC[C@@H]1[C@@H]2c1ccccc1	12.4	/	/	2.1	-6.6	0.5	/	1.8
CCOC(=O)CS(=O)(=O)c1nc(-c2ccccc2)cc(C(F)(F)F)n1	95.8*	-31.6	3.2	109.0*	-7.2	8.7*	-4.9	3.5
